Assay outcomes from PubChem.
VACV Venus inh: qHTS for Stage-Specific Inhibitors of Vaccinia Orthopoxvirus: Venus Reporter Primary qHTS | Vaccinia virus Venus reporter expression, fluorescence | Potency, µM (titrated, usually from 36.5 µM), for the others: at the highest dose activity change, negative = inhibition, hits mostly inhibitors | 330,000 tested, 0.46% active | AID 720580, 2013; active means well fitted inhibition curve with a large enough effect; inconclusive means small, poorly fitted or top-dose-only effect; inactive means no such curve, though single readings can be large or run the other way; tested in A549 cells; note: nearly all actives have a fitted effect of over 30% in size; inactives centre near -10
Vaccinia mCherry: qHTS for Stage-Specific Inhibitors of Vaccinia Orthopoxvirus: mCherry Reporter Primary qHTS; Vaccinia virus mCherry reporter infection, fluorescence; about a quarter of the inactives have no number; Potency, µM (top dose mostly 36.5 µM), without a hit: top-dose activity change, negative = inhibition, usual class: inhibitors; 310,000 tested, 0.63% active; active = well fitted inhibition curve with a large enough effect; inconclusive = small, poorly fitted or top-dose-only effect; inactive = no such curve, though single readings can be large or run the other way; tested in A549 cells; note: nearly all actives have a fitted effect of over 35% in size; inactives centre near -10
Numbers without * were called inactive; i = inactive; u = inconclusive; x = no result given; & = joins results of further samples; [ ] = another dose, or the depositor's remark. % is set by controls: 0 for no effect and ±100 for the full control effect; potency is the fitted concentration of half-maximal effect.

SMILES	VACV Venus inh	Vaccinia mCherry
O=C(OCC(=O)c1ccc(Cl)s1)c1ccccn1	-6%	i
Oc1ccc(O)c(-c2cnns2)c1	-19%	-25%
Cc1ccc(C(=O)Nc2cc3c(cc2Cl)OCCCO3)cc1	-13%	x
CCc1c(C)sc(NC(=O)c2cc(C)no2)c1C#N	-14%	i
COc1ccc(Cc2ccc(OC)c(N)c2)cc1N	-11%	-2%
O=C(COC(=O)c1ccc(NS(=O)(=O)c2ccc3c(c2)OCCO3)cc1)NC1CC1	-17%	i
O=C(c1ccc(Cn2c(=O)[nH]c3ccccc3c2=O)cc1)N1CCN(c2ccccc2)CC1	-15%	-14%
COc1c(C)cccc1C(=O)NC(=S)Nc1ccc2c(c1)Cc1ccccc1-2	3%	-9%
COc1ccccc1C1C(C(C)=O)=C(O)C(=O)N1c1ccc(O)cc1 (stereo not given)	-13%	i
O=C(Nc1ccc2c(c1)OCO2)C1(S(=O)(=O)c2ccc(Cl)cc2)CC1	-3%	-12%
O=C(NC(=S)N(CCO)Cc1ccccc1)c1ccc(S(=O)(=O)N2CCCC2)cc1	0%	-4%
CCOc1ccccc1-n1cc2c(c1-c1ccc(OC)cc1)c(=O)n(C)c(=O)n2C	-11%	-7%
O=S(=O)(c1ccc(F)cc1)N1CCN(CC2CC3C=CC2C3)CC1 (stereo not given)	-10%	i
O=C1NNC(c2ccccc2)=N/C1=C\c1ccc(Cl)cc1	3%	-26%
COc1ccc(CCNS(=O)(=O)c2ccc3c(c2)n(C)c(=O)c(=O)n3C)cc1OC	-3%	i
Cc1cc2oc(C(=O)Nc3ccc(S(=O)(=O)N(C)c4ccccc4)cc3)cc(=O)c2cc1C	-7%	-5%
c1ccc(C2NCCn3cccc32)cc1 (stereo not given)	-9%	-10%
NC(=O)c1ccsc1NC(=O)COC(=O)c1nc(Cl)ccc1Cl	-5%	-16%
CN(C)CCCNS(=O)(=O)c1ccc(N2CCN(Cc3ccc4c(c3)OCO4)CC2)c([N+](=O)[O-])c1	-11%	u
C[N+](C)(C)C/C=C1/COCO1	0%	-9%
CCCNC(=O)COc1ccccc1[N+](=O)[O-]	-9%	-29%
CCCc1nnc(NC(=O)c2ccncc2)s1	-9%	-14%
COC(=O)CCC(=O)NC(=S)Nc1c(C)cccc1C	1%	-12%
O=C(Nc1ccccc1)C(CCCCN1C(=O)c2ccccc2C1=O)N1C(=O)c2ccccc2C1=O (stereo not given)	-5%	i
O=S1(=O)NC2CCCCCN2c2ccc(F)cc21 (stereo not given)	-15%	x
CCOc1ccc(CNC(=O)c2ccc(CSc3nc4ccncc4n3Cc3ccc(F)cc3)cc2)cc1	-28%	-29%
CC(C)(C)CC(=O)N1CCC(c2nc3c(nnn3Cc3c(F)cccc3Cl)c(=O)[nH]2)CC1	-27%	-14%
Cn1c(=O)c2c(nc(OC/C=C/c3ccccc3)n2C)n(C)c1=O	-11%	-5%
CC(OC(=O)c1oc2ccccc2c1COc1ccccc1)C(=O)NC(N)=O (stereo not given)	-11%	-12%
Cc1cccc2cc(C#N)c(NCc3ccccc3)nc12	u	-2%
O=C(COc1cccc2cccnc12)N/N=C/c1ccccc1O	-27%	2.5µM*
COc1ccc(C2OC(=O)CC2C(=O)N2CCN(c3cc(Cl)ccc3C)CC2)cc1OC (stereo not given)	4%	-20%
CCN1C(=O)[C@@H]2[C@@H]3CN(S(=O)(=O)c4ccc(C)cc4)[C@@H](c4ccccc4Cl)[C@@H]3C(=O)C[C@@H]2C1=O	0%	28%
Cc1ccc(CC2CC(=O)N(CCc3ccccc3)C2=O)cc1 (stereo not given)	6%	7%
Cc1ccc2cc3c(NC(=O)C(C)C)nn(C)c3nc2c1	u	x
Cc1ccccc1OCC1CNC(=O)O1 (stereo not given)	-9%	-27%
CCn1c(SCC(=O)NC2=NCCS2)nnc1C(C)NC(=O)c1ccccc1F (stereo not given)	-14%	i
CC1CC(C)CN(c2ncnc3c2cnn3C)C1 (stereo not given)	0%	i
Cc1ccc(-n2c(O)c(C=Nc3ccccc3-c3n[nH]c(=S)[nH]c3=O)c3ccccc3c2=O)c(C)c1	-4%	i
C#CCNC(=O)C[C@@H]1C[C@@]2(C(=O)OCC)CCCC=C2N(Cc2ccccc2)C1=O	-3%	-10%
COC(=O)/N=C/c1c(NCc2ccccc2)nc2c(C)cccn2c1=O	-4%	0%
Cc1ccc(C)n1-c1ccsc1C(=O)CC#N	2%	5%
COc1ccccc1Cn1c(=S)[nH]c2cc(C(=O)NCCN3CCOCC3)ccc2c1=O	-6%	i
Cc1cccc(C(=O)N2CCN(c3ccccn3)CC2)c1	-4%	i
CCN1C(=Nc2ccc(Cl)cc2)SC/C1=C\C(=O)OC	-8%	-12%
O=C(Cn1ccc2ccccc2c1=O)NCCC(=O)Nc1cccnc1	-14%	-18%
O=C(c1ccccc1)N(c1ccccc1)c1nccc2ccccc12	0%	u
O=C(CSc1ccc2nnc(-c3ccc(F)cc3)n2n1)NCc1ccco1	-14%	i
Cc1ccc(C(=O)NCCc2csc(-c3cccc(F)c3)n2)cc1C	6%	-6%
CC(=O)Nc1ccc(C(=O)N2CCCC(n3cc(C(=O)NCC(C)C)nn3)C2)cc1 (stereo not given)	-13%	i

(continued)
SMILES	VACV Venus inh	Vaccinia mCherry
CC1CCCN(c2ccc(C(=O)NCC3CCCO3)cn2)C1 (stereo not given)	-12%	i
Cc1ccc(-c2cc(C(F)(F)F)n3nc(C(=O)NCC45CC6CC(CC(C6)C4)C5)cc3n2)cc1	-7%	-6%
c1ccc(COc2ccc(-c3cc4nc(NCCCn5ccnc5)ccn4n3)cc2)cc1	-11%	-20%
O=C(c1ccccc1)n1ccc(-c2cccs2)n1	-14%	-13%
O=c1[nH]c(CN2CCN(CCO)CC2)nc2ccccc12	-15%	x
CCC(c1nc2ccccc2[nH]1)n1c(-c2cnccn2)nc2ccccc21 (stereo not given)	5%	-22%
O=C1CCC(=O)N1CC(=O)N1CCCc2ccccc21	-10%	i
CC[C@H](C)C(=O)N[C@H]1CCCN1C(=O)/C=C/c1ccccc1	6%	-17%
CCCCNC(=O)c1ccc2nc(CC)c(N(C)Cc3ccc(OC)cc3)n2c1	-12%	-9%
C[C@@H]1NS(=O)(=O)[C@H]2C[C@@H]3C=C[C@]2(O3)[C@H]1OC(=O)Nc1ccc(C(F)(F)F)cc1[N+](=O)[O-]	-7%&-13%	-9%
CCOC(=O)C1CCN(c2nnc(N3CCCC3=O)s2)CC1	-19%	x
COCCNS(=O)(=O)c1cc(-c2nn(C)c(=O)c3ccccc23)ccc1C	-6%	-10%
Cc1cc(C(=O)N2CCCC(C(=O)c3ccc(Cl)cc3C)C2)no1 (stereo not given)	u	i
O=C(NCc1ccc(Cl)cc1)C1CCC(CNc2c(N3CCCCC3)c(=O)c2=O)CC1 (stereo not given)	-4%	12%
CC(C)(C)OC(=O)NCC12C=CC(O1)C1C(=O)N(Cc3ccccc3)C(=O)C12 (stereo not given)	-16%	x
COc1cc(OC)cc(C(=O)NCCNC(=O)c2ccccc2)c1	1%	-15%
CC1(C(=O)NCc2ccc3c(c2)OCO3)CCN1C(=O)Cc1cccs1 (stereo not given)	0%	2%
C=CCc1ccccc1OCC(O)CN(CC)CC (stereo not given)	-6%	-16%
CCSC1=N/C(=C\c2ccccc2)C(=O)N1c1ccc(OC)cc1	-12%	-16%
O=C(NN=Cc1cccc2ccccc12)C(=O)NN=Cc1cccc2ccccc12	-8%	i
Fc1cccc(CCN2CCN=C2Nc2ccccc2)c1	-17%	-3%
COc1ccc(Cl)cc1Cn1c(C)c(C(=O)NCc2cccc(C(F)(F)F)c2)sc1=O	-5%	i
COc1cccc(C(CC(=O)Nc2cccc3ccccc23)NC(=O)c2ccccc2)c1 (stereo not given)	-19%	-2%
Cc1ccc(C)c(NC(=O)C(OC(=O)c2cc[n+]([O-])cc2)c2ccccc2)c1 (stereo not given)	-17%	i
COc1ccc(OC)c(NC(=O)CSc2nc(=O)n(Cc3ccccn3)c3c2CCC3)c1	-20%	-25%
Cc1ccc(-n2ncc3c(=O)[nH]c(SCC(=O)N4CCN(c5ccccc5)CC4)nc32)cc1	-11%	i
CC(C)c1ccc(NC(=O)c2cc3c(s2)-c2ccccc2SC3)cc1	-13%	-6%
CCNC(=S)N/N=C(\C)c1ccc(Cl)s1	-18%	u
O=C1CSC(c2ccccn2)N1c1ccc(Br)cc1 (stereo not given)	-12%	-11%
COc1cccc(C(C#N)NCCCNC(C#N)c2cccc(OC)c2OC)c1OC (stereo not given)	-2%	-7%

Part of the list above in order of molar mass, descending:
SMILES	VACV Venus inh	Vaccinia mCherry
CN(C)CCCNS(=O)(=O)c1ccc(N2CCN(Cc3ccc4c(c3)OCO4)CC2)c([N+](=O)[O-])c1	-11%	u
O=C(NCc1ccc(Cl)cc1)C1CCC(CNc2c(N3CCCCC3)c(=O)c2=O)CC1 (stereo not given)	-4%	12%
O=C(c1ccc(Cn2c(=O)[nH]c3ccccc3c2=O)cc1)N1CCN(c2ccccc2)CC1	-15%	-14%
CCOc1ccccc1-n1cc2c(c1-c1ccc(OC)cc1)c(=O)n(C)c(=O)n2C	-11%	-7%
O=C(CSc1ccc2nnc(-c3ccc(F)cc3)n2n1)NCc1ccco1	-14%	i
Cc1ccc(C)c(NC(=O)C(OC(=O)c2cc[n+]([O-])cc2)c2ccccc2)c1 (stereo not given)	-17%	i
Cc1ccc(C(=O)NCCc2csc(-c3cccc(F)c3)n2)cc1C	6%	-6%
CCSC1=N/C(=C\c2ccccc2)C(=O)N1c1ccc(OC)cc1	-12%	-16%
Cc1ccc(C(=O)Nc2cc3c(cc2Cl)OCCCO3)cc1	-13%	x
CC[C@H](C)C(=O)N[C@H]1CCCN1C(=O)/C=C/c1ccccc1	6%	-17%
Cc1cccc(C(=O)N2CCN(c3ccccn3)CC2)c1	-4%	i
C=CCc1ccccc1OCC(O)CN(CC)CC (stereo not given)	-6%	-16%
CCNC(=S)N/N=C(\C)c1ccc(Cl)s1	-18%	u
Oc1ccc(O)c(-c2cnns2)c1	-19%	-25%

Carrying on:
SMILES	VACV Venus inh	Vaccinia mCherry
Cc1ccc(OCC(=O)Nc2ccc3c(c2)OCO3)c([N+](=O)[O-])n1	10%	-3%
Cc1ccc(NC(=O)Nc2ccc3c(c2)N(C)C(=O)CS3)nc1	u	u
CC1(C)Cc2c(c(-c3ccccc3)nc(N3CCCC3)c2C(N)=O)CO1	2%	-6%
CN1CCN(C(=O)c2cc3ccccc3oc2=O)CC1	3%	1%
CN(C)C(=O)c1cn(-c2ccc(Cl)cc2)c(=O)c2ccccc12	5%	i
Cc1cc(C)c(NC(=O)Cn2c(=O)n(CCC(=O)NCc3ccc4c(c3)OCO4)c(=O)c3ccccc32)c(C)c1	1%	-3%
COc1ccccc1N1CCN(C(=O)CCSCc2ccccc2F)CC1	-9%&-12%	-7%&-7%
O=C(CC1SC(N2CCCC2)=NC1=O)Nc1ccc(C(=O)N2CCN(c3cccc(Cl)c3)CC2)cc1 (stereo not given)	-30%	u
CCCCOc1ccc(C2=NC(c3ccncc3)=Nc3ccc(Br)cc3N2)cc1	-10%	-8%
CC(=O)c1cccc(NC(=O)CCCNC(=O)c2ccc(Cl)cc2)c1	11%	54%[activator]
CN(C(=O)COc1ccccc1)c1nnc(-c2ccncc2)s1	-12%	i
CC1(C(=O)Nc2cccc3cccnc23)CCN1Cc1ccccc1OC(F)F (stereo not given)	-11%	16%
COc1ccc2c(c1)c(=O)oc1c(C)c(OCc3cc(C(=O)O)oc3C)ccc12	-8%	i
Cn1c(=O)n(-c2ccc(Br)cc2F)c(=O)c2sc3ccccc3c21	8%	-2%
Cc1cc(C)c(C)c(S(=O)(=O)N2CCCCC2C(=O)O)c1C (stereo not given)	-11%	-3%
Cc1ccccc1C(=O)N1CCN(CCc2ccccn2)CC1	1%	-5%
COc1ccc(S(=O)(=O)N/N=C\c2ccc3c(c2)OCO3)c(OC)c1	-16%	-2%
CSc1ccc(C(=O)/C=C/c2ccc(N)cc2)cc1	u	-27%
Cc1cc(C)c[n+](CC(=O)c2ccc(NC(=O)c3ccccc3)cc2)c1	-4%	-17%
CCc1cc(-c2ccc3c(c2)COc2c4ccccc4nn2-3)on1	u	u
O=C(Nc1ccccc1)c1cnc2ccccc2n1	1%	-2%
N#CCC(=O)N1CCCCCC1	0%	i
C/C(=N\Nc1ccccc1C(=O)O)c1ccncc1	-8%	-6%
C/C=C/c1ccc(OCCN2CCc3ccccc3C2)c(OC)c1	8%	-18%
Cc1nc(C(=O)O)sc1C1(C)CC(c2cccc([N+](=O)[O-])c2)=NO1 (stereo not given)	-10%	i
O=C(Nc1ccc(S(=O)(=O)NCc2ccco2)cc1)c1cccc(F)c1	-6%	-8%
Nc1nc2c(ncn2[C@@H]2O[C@H](COP(=O)(O)OP(=O)(O)OP(=O)(O)O)[C@@H](O)C2O)c(=O)[nH]1 (stereo not given in full)	u	-27%
COc1ccc(-c2cc(C(=O)NN)n(-c3ccccc3)n2)cc1	-15%	i
COCCN(CCOC)Cc1cc(=O)oc2ccccc12	1%	i
CCN(CC(=O)Nc1cc(Cl)ccc1C)C(=O)CSCc1c(C)noc1C	-19%	-24%
CCOc1ccc(NC(=O)CNS(=O)(=O)c2c(C)cc(C)cc2C)cc1	-15%	-12%
COc1ccc(CCC(=O)Nc2ccc3c(c2)OCCO3)cc1	-18%	-5%
COC(=O)c1c(-c2ccc(N(C)C)cc2)oc2c1C(OC)CCC2 (stereo not given)	-2%	12%
CCOC(=O)c1c(NC(=O)CC)sc(C(=O)N2CCCCC2)c1C	-13%	-12%
